# Screening results deposited in PubChem by several laboratories.
# Rce1 inhib: blocks yeast Ras-converting enzyme | 290,000 tested, 0.27% active | calls only | yeast membranes, quenched prenylated peptide cleavage fluorescence;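 active means fall in fluorescence gain of 50% or more versus controls, with final raw signal at or below 3038400; inconclusive means same 50% fall but final raw signal above 3038400; inactive means fall in fluorescence gain under 50%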;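 further: plate controls were neutral control wells for no effect and wells lacking membranes for full effect; tested at 10 µM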
# Target sequence (Q03530 whole entry, looked up): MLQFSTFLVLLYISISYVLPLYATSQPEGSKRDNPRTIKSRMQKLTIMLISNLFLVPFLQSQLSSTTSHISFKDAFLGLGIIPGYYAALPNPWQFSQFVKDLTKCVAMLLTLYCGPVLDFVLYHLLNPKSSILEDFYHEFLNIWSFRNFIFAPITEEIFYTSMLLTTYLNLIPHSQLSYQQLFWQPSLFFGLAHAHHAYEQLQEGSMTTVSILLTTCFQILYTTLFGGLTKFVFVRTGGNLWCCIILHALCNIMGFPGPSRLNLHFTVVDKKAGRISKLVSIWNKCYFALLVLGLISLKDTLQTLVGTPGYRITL
# Env fusion inh: inhibitors of HIV Env-mediated cell fusion | HeLa-JRFL Env/CEM21 cell fusion, luciferase | inhibition, % at 12.3 µM | 360,000 tested, 1.1% active | AID 651610;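 active means mean replicate inhibition score of at least 50 and every replicate individually at or above 50; inconclusive means only one of the two criteria met; inactive means mean below 50 and not all replicates reaching 50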;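 further: 0% = plate neutral controls and 100% = maraviroc near 300 nM; one replicate is shown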
# eIF4H inh: inhibitors of RNA binding by human eIF4H; eIF4H fluorescence polarization binding assay; 290,000 tested, 0.94% active; AID 2012; inhibition, % at 35 µM;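 active means 50% or more with normal probe brightness, or confirmed in later tests; inconclusive means above 50% with abnormal brightness, or retests that disagree; inactive means below 50% or failed in later tests; about a fifth of its hits are not listed in these tables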;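 further: calls also rest on retests at 20 µM and on dose response follow-up; 0% = protein and probe with vehicle and 100% = probe without protein; strong numbers were not always called active; many hits fall short of the cut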
# MT1-MMP act inh: blocks activation of human MT1-MMP | P50281 | HT1080 RFP-PRO-GFP cells, GFP/RFP ratio fluorescence, overnight; percent of plate control window, DMSO zero | GFP/RFP ratio change, % at 20 µM | 360,000 tested, 0.061% active | AID 651647;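 active means GFP/RFP ratio change of at least 30% with cell ATP level not reduced by more than half and red fluorescence within 50% of control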; further: strong numbers were not always called active
#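 Read-out: GFP/RFP fluorescence ratio; Test system: RFP-PRO-GFP reporter HT1080 cells; Compound dosing: single-point 20 µM compound, 1% DMSO; Times: overnight compound exposure at 37 °C.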
# PABP FP inh: blocks human PABP binding to poly(A) RNA | 290,000 tested, 1% active | P11940 | fluorescence polarization | inhibition, % at 35 µM;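 active means 50% or more with normal probe brightness, or confirmed in later tests; inconclusive means above 50% with abnormal brightness, or retests that disagree; inactive means below 50% or failed in later tests; about a fifth of its hits are not listed in these tables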;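 further: calls also rest on retests at 20 µM and on dose response follow-up; controls were probe without protein and protein plus probe with vehicle; some compounds called inactive have numbers as strong as hits; many hits fall short of the cut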
# UUG fidelity: alters start codon recognition fidelity in yeast | S. cerevisiae UUG-firefly luciferase reporter, luminescence/redox ratio | 350,000 tested, 0.13% active | activity score, % at 18.7 µM | AID 602363;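 active means replicate mean at a twofold rise or more, about +100% in these data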;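 further: firefly luciferase made from a UUG start codon reports start codon fidelity; reporter light over untreated wells divided by growth signal over untreated wells; some hits fall short of that in this replicate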
# CSC inhib: blocks cancer stem cells | inhibition, % at 7.5 µM | cancer stem cell-like cells viability, luminescence | 300,000 tested, 1.1% active;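 active means mean at 75% or more and at least half the replicates too; inconclusive means mean and replicates disagree; tested in HMLE shEcad cells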;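 further: 0% = median of negative and 100% = median of positive control wells; the first replicate is given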
# MT1-MMP act inh RFP: second read-out of MT1-MMP act inh, no call of its own (marks repeat the call); RFP signal change, %; measured here: RFP expression control read;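 0 = vehicle wells; hits needed this value within 50% of zero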
# The depositor's hits bear a star; i = inactive; ? = inconclusive; . = no result given. An unsorted share of the library (roughly 2.9% active in at least one column).
SMILES,Rce1 inhib,Env fusion inh,eIF4H inh,MT1-MMP act inh,MT1-MMP act inh RFP,PABP FP inh,UUG fidelity,CSC inhib
O=C(Cc1ccc(O)cc1)N/N=C/c1cccnc1,i,-5,-5,0,5,-4,-8,3
O=C(COc1ccccc1[N+](=O)[O-])N/N=C/c1ccc(OC(=O)c2ccco2)cc1,i,.,5,2,2,7,3,7
COc1cc2c(=O)n(Cc3ccccc3)c(=O)n(CC(=O)NCCc3ccccc3)c2cc1OC,i,-55,0,-1,-5,5,-18,0
Cc1ccc(S(=O)(=O)Nc2ccc(OCC(=O)N3CCOCC3)cc2)c(C)c1NS(C)(=O)=O,.,-8,-7,-1,1,-1,-2,5
Cc1ccc(C(=O)OCC(=O)N(Cc2ccccc2)C(C)C)cc1C,.,-2,.,3,0,.,.,-18
CCOc1ccc(S(=O)(=O)N2CCN(c3ccccn3)CC2)cc1,i,-32,-1,4,-10,2,-18,7
O=C(Nc1cccc(Cl)c1)OCc1ccccn1,i,-108,-4,4,-3,4,-1,-11
Cc1ccc2c(c1)c1c(n2CC(O)CNC2CCCCC2)CCCC1 (stereo not given),i,-33,11,-6,-3,-1,-15,77*
COC(=O)[C@H](CC(C)C)NC(=O)N1CCCCC1,i,4,-9,4,4,-2,-14,-15
CCc1c(C(=O)NCCc2cccc(C)c2)[nH]c(C)c1C(C)=O,i,9,-5,6,-6,-4,1,6
CC(C)(C)c1ccc(C(=O)CSc2nc3ccccc3c(=O)[nH]2)cc1,i,10,-15,0,-1,4,-13,-9
CCOc1ccc(CN(C)C(C)C(=O)NCCc2ccc(F)cc2)cc1 (stereo not given),i,12,9,1,0,2,-6,4
C=CCOc1ccc(/C(CC)=N/O)c(OC)c1,i,i,-5,2,-2,-4,-18,1
CC(=O)N1CCc2cc([N+](=O)[O-])ccc21,.,0,.,-3,-1,.,-11,.
COc1ccc(CNC(=O)C/C(C)=N/NC(=O)Cc2ccc(OC)c(OC)c2)cc1,i,14,2,3,5,10,.,-6
O=C(NC1CCCCC1)N1CCc2ccccc2C1,i,-23,1,3,0,4,-9,-4
Cc1ccc(Cc2c(-c3ccc(C#N)cc3)nc3c(C)cc(Br)cn23)cc1,.,12,.,-3,-2,.,8,.
Cc1cc(C(=O)NC(=S)Nc2ccccc2N2CCOCC2)ccc1[N+](=O)[O-],i,-32,-4,-3,-6,-6,-26,33
COCCNC(=O)/C(C#N)=C/c1cc(C)n(C2CCCCC2)c1C,i,-114,-3,2,-1,25,.,12
CC(C)(C)c1ccc(C(=O)Nc2ccc(C(=O)NCc3cccnc3)cc2)cc1,.,5,-5,6,-10,4,-5,3

# A stretch from further up, as a working copy:
SMILES,Rce1 inhib,Env fusion inh,eIF4H inh,MT1-MMP act inh,MT1-MMP act inh RFP,PABP FP inh,UUG fidelity,CSC inhib
Cc1ccc(S(=O)(=O)Nc2ccc(OCC(=O)N3CCOCC3)cc2)c(C)c1NS(C)(=O)=O,.,-8,-7,-1,1,-1,-2,5
Cc1ccc(C(=O)OCC(=O)N(Cc2ccccc2)C(C)C)cc1C,.,-2,.,3,0,.,.,-18
CCOc1ccc(S(=O)(=O)N2CCN(c3ccccn3)CC2)cc1,i,-32,-1,4,-10,2,-18,7
O=C(Nc1cccc(Cl)c1)OCc1ccccn1,i,-108,-4,4,-3,4,-1,-11
Cc1ccc2c(c1)c1c(n2CC(O)CNC2CCCCC2)CCCC1 (stereo not given),i,-33,11,-6,-3,-1,-15,77*
COC(=O)[C@H](CC(C)C)NC(=O)N1CCCCC1,i,4,-9,4,4,-2,-14,-15
CCc1c(C(=O)NCCc2cccc(C)c2)[nH]c(C)c1C(C)=O,i,9,-5,6,-6,-4,1,6
CC(C)(C)c1ccc(C(=O)CSc2nc3ccccc3c(=O)[nH]2)cc1,i,10,-15,0,-1,4,-13,-9
CCOc1ccc(CN(C)C(C)C(=O)NCCc2ccc(F)cc2)cc1 (stereo not given),i,12,9,1,0,2,-6,4
C=CCOc1ccc(/C(CC)=N/O)c(OC)c1,i,i,-5,2,-2,-4,-18,1
CC(=O)N1CCc2cc([N+](=O)[O-])ccc21,.,0,.,-3,-1,.,-11,.
COc1ccc(CNC(=O)C/C(C)=N/NC(=O)Cc2ccc(OC)c(OC)c2)cc1,i,14,2,3,5,10,.,-6

# Additional entries follow.
SMILES,Rce1 inhib,Env fusion inh,eIF4H inh,MT1-MMP act inh,MT1-MMP act inh RFP,PABP FP inh,UUG fidelity,CSC inhib
O=C(NCc1cccnc1)c1cccn2c(=O)c3sccc3nc12,i,-8,-2,-2,-3,1,-27,-12
CC(=O)O[C@H]1CC[C@@]2(C)C(CCC3C2CC[C@]2(C)OC(=O)CCC32)C1 (stereo not given in full),i,-64,5,0,5,7,2,-7
CCCc1cc(CNC(=O)C2CCC(=O)N(Cc3ccccc3F)C2)on1 (stereo not given),i,27,-9,-1,-1,0,-2,-18
O=C(Cn1ncc(N2CCOCC2)c(Cl)c1=O)c1ccc(Cl)cc1,i,-13,11,0,1,1,.,-10
CCCCC1(CCCC)NC(=S)N(Nc2ccc(C)cc2)C1=O,i,-2,7,6,-6,-9,-23,7
Cc1cc(C)nc(SCC(=O)Nc2ncc3c(n2)CCCC3=O)n1,i,-21,-2,1,6,5,-12,-15
COc1ccc2sc(-c3ccc(S(C)(=O)=O)cc3)c(C(=O)NCCc3c[nH]c4ccccc34)c2c1,.,25,.,0,-4,.,6,-4
FC(F)(F)c1ccc(Cl)c(NC(=S)NC2CC2)c1,i,.,-5,2,0,-1,-17,-6
Cc1ccc(Nc2ncnc3sccc23)c(C)c1,i,3,-16,3,0,1,-7,-7
O=C(N/N=C/c1cc(Br)cc(Br)c1O)c1ccncc1,i,-2,?,.,.,-1,.,-6
CCN(CC)c1ccc(Nc2cc3n(c(=O)n2)CCc2cc(OC)c(OC)cc2-3)cc1,i,12,-2,-6,-3,7,.,-2
COCCNC(=O)CN(CCc1ccccc1)S(=O)(=O)c1ccc(Br)cc1,i,3,4,2,-2,0,-6,-4
Cc1ccccc1NC(=O)c1cnn(-c2ccccc2)c1NC(=O)c1ccco1,i,.,3,-6,1,9,-6,9
Cc1ccccc1CC(=O)NCCN1CCCCC1,i,-41,-2,3,-2,-6,-6,-5
Cc1cccc(OCC(=O)Nc2ccc(N3CCN(C(=O)c4ccccc4)CC3)cc2)c1C,i,6,-3,-1,-12,-12,-11,-8
N#Cc1c(NC(=O)/C=C/C(=O)O)sc2c1CCN(Cc1ccccc1)C2,i,-8,?,-34,6,?,-22,-4
O=C(OCc1ccccc1)N1CCC2CC1c1cc(N3CCOCC3)ccc12 (stereo not given),.,13,.,-7,-18,.,-9,.
COC(=O)COc1ccc(S(=O)(=O)N2CCN(c3ccccc3F)CC2)cc1C,i,-10,4,0,0,2,-8,-7
Cc1ccc(OCC(O)CNC(=O)c2ccccc2C(=O)O)cc1 (stereo not given),i,-80,0,9,4,5,4,-6
O=C(NCc1ccco1)c1cc(-c2ccccc2)nc2ccccc12,i,.,-19,0,-6,-4,-4,-5
COC(=O)c1ccc(CN2CCN(C3CCCC3)C(CCO)C2)cc1 (stereo not given),i,12,-4,4,6,5,-4,-3
Cc1c(NC(=O)OCCNC(=O)COc2ccc(Cl)cc2Cl)sc(=S)n1C,i,.,-4,-1,-12,-5,.,22
O=S(=O)(/N=C/N1CCOCC1)c1ccc(Cl)cc1,i,-69,3,0,4,-4,-20,5
CC(=O)Nc1ccc(S(=O)(=O)N(C)CC(=O)OCC(=O)N(CC(C)C)C2CCS(=O)(=O)C2)cc1 (stereo not given),i,-2,.,5,0,.,-13,.
COc1ccc(C(=O)N/C(=C\c2cccc3ccccc23)C(=O)N2CCN(C)CC2)cc1OC,i,3,-8,0,-1,14,11,-1
O=C(O)c1cccc(CSc2nc(-c3ccccc3)cc(C(F)(F)F)n2)c1,i,-7,4,-4,-1,4,.,5
CC(=O)Nc1ccc(S(=O)(=O)NCc2ccc(C(=O)N3CCOCC3)cc2)cc1,i,3,.,-1,1,.,-10,5
CCN1CCN(CC(=O)Nc2cc(C(F)(F)F)ccc2OCCOC)CC1,i,1,-2,1,2,-7,.,12
CC(=O)c1sc(-c2ccccn2)nc1C,i,.,8,.,.,1,.,-18
Cc1ccc(S(=O)(=O)N(C)C)cc1NC(=O)c1ccncc1,i,7,-2,1,1,0,.,-1
Cc1ccc(-c2cnc3c(Nc4cccc(OC(F)(F)C(F)F)c4)nccn23)cc1,.,61*,.,-6,-28,.,0,.
CCCCCCNC(=O)N[C@@H](C(=O)NCCC[C@H]1CN2C(=NC[C@@H]2Cc2ccccc2)N1CCc1cccc(OC)c1)C(C)C,i,.,-10,.,.,14,.,3
CCOc1ccccc1NC(=O)Nn1cnnc1,i,-19,-9,4,-5,-9,-22,.
COc1cccc(OC)c1C(=O)N1CCN(Cc2cccnc2)CC1,i,11,14,-3,1,15,-17,-6
COc1ccc(C(CNC(=O)c2cccc(S(=O)(=O)Nc3ccccc3Cl)c2)N2CCOCC2)cc1 (stereo not given),i,-6,.,7,-15,.,.,.
Cc1cccc(-c2ccc3ncnc(NCc4cccs4)c3c2)c1,.,4,.,-8,-28,.,-8,38
Cc1ccccc1-c1n[nH]c(=S)n1Cc1ccccc1,i,8,-9,-1,-2,12,.,-7
COC(=O)c1cccc(NC(=O)c2nn(C)c(=O)c3ccccc23)c1,i,-64,7,7,2,6,-1,-7
Cc1cccc(OCC(=O)Nc2ccc3c(c2)nc(CCN2CCCCC2)n3C)c1,i,8,-3,-1,4,-2,-22,-1
O=C(Cn1cnc2sc3c(c2c1=O)CCCC3)NCC(=O)Nc1ccccc1F,i,-1,3,8,-1,15,-22,4
OC1CN=C2Sc3ccccc3N2C1 (stereo not given),i,.,-2,-2,2,5,-28,-8
CCc1ccc(NC(=O)c2cccnc2)cc1,i,2,-1,0,-7,14,-10,-11
COc1ccc(Br)cc1CN1CCN(C(=O)c2ccc(OC)c(OC)c2)CC1,i,7,19,-1,0,8,.,-5
COc1cccc(-c2noc(Cn3nc(C(=O)O)c4ccccc4c3=O)n2)c1,.,-3,11,-1,-3,1,-6,-4
CCc1nc2c(c(=O)c3ccccc3n2C)c(=O)n1-c1ccc(F)cc1,i,-235,4,-1,4,-1,.,-3
Nc1cc(Cl)ccc1Oc1ccccc1,i,-5,-2,-5,1,0,-24,-15
CCN(Cc1ccccc1)C(=O)COC(=O)Cc1c[nH]c2ccccc12,.,-11,.,-1,2,.,-2,.
Cc1[nH]c(=O)n(C(C)C)c(=O)c1Br,.,-7,.,-4,3,.,1,.
COc1ccc(Cl)cc1NC(=O)Cn1cccc1,i,.,1,-1,0,8,-10,-1
c1ccc(CSc2ncccn2)cc1,i,.,-1,3,3,-3,-7,-2
CC[C@@H]1C(c2ccccc2)=NN(c2ccc(Br)cc2)[C@H]1C(=O)N1CCOC1=O,.,-11,.,0,-3,.,-10,.
CN(C)c1ccc(CN2CCC(C(=O)NC(c3ccc(Cl)cc3)c3cnccn3)CC2)cc1 (stereo not given),.,17,.,-4,1,.,1,.
